# BJeLR viability: BJeLR cell viability loss; BJeLR (HRASV12) viability, CellTiter-Glo ATP luminescence, 48 h; reference of the scale not given here; inhibition, % (no concentration beside the values); actives 0.17% (n = 300,000); AID 1554;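 active = replicate mean above 50%; inconclusive = above 50% but judged a plate artefact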;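 also: 50 nL library stock added to about 25 µL; numbers are from one replicate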
# Bead autofluor: counter-screen for toxin protease inhibitors: compound fluorescence. compound autofluorescence counterscreen, microsphere flow cytometry; hits give high values. fluorescence intensity (test concentration not listed). actives 3.1% (n = 360,000). AID 624483;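 active = at least 3 SD above the mean of all compounds, about 16000 in these data; inconclusive = too few beads counted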;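 also: 100 nL of 1 mM stock went into each well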
# ugtP null kill: compounds lethal to S. aureus RN4220 ugtP deletion mutant; OD600 growth, 16 h; some inactives read as strong as hits; growth inhibition, % (no concentration beside the values); actives 0.54% (n = 330,000);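 active = z-score under -3 and OD600 up to 0.15 on both plates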;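 also: plate controls were untreated wells for no effect and antibiotic for full effect; wells of about 80 µL received 100 nL stock; the first replicate is given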
# RN4220 kill: S. aureus RN4220 growth inhibition; OD600, 16 h; inhibition, % (test concentration not listed); actives 0.33% (n = 330,000); AID 1259311;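 active = z-score of -3 or lower and OD600 up to 0.18 on both plates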;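 also: plate controls were untreated cells for no effect and reference antibiotic for full effect; stock transfer was 100 nL into about 80 µL; one replicate is shown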
# Mtb hypoxia rep: reduces hypoxia-regulated biosensor signal in M. tuberculosis; actives 0.1% (n = 300,000); AID 1159583; M. tuberculosis hypoxia-regulated fluorescent reporter, fluorescence; fluorescence inhibition, % (no concentration beside the values);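 active = 35 to 45% if threefold the growth effect, above 45% if 1.5-fold the growth effect; inactive = the rest, general growth blockers included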;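 also: wells of about 50 µL received 100 nL stock; 0% = vehicle wells and 100% = reference inhibitor wells; whole bacteria with a GFP reporter of the hypoxia response; strong numbers were not always called active; many hits fall short of the cut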
# PrP UTR inh: inhibition of PrP 5' UTR reporter expression; cell-based PrP 5' UTR mRNA reporter, plate reader; inhibition, % (concentration not given with the values); actives 0.35% (n = 340,000); AID 488862;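 active = every replicate at 50% or more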;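 also: 0 = median of the neutral control wells; tested in H4 reporter cells; numbers are from one replicate; inactives centre near -14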
# Mtb hypoxia rep growth: also measured in Mtb hypoxia rep; calls as there; growth inhibition, %; measured here: M. tuberculosis growth (absorbance);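 0% = vehicle and 100% = reference antibiotic; read after six days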
# * hit, by the source's call; u = inconclusive; x = no result given; & = joins results of further samples.
SMILES,BJeLR viability,Bead autofluor,ugtP null kill,RN4220 kill,Mtb hypoxia rep,Mtb hypoxia rep growth,PrP UTR inh
Fc1cccc2sc(N3CCCC3)nc12,-25,5033,9,4.4,x,x,-69
CCOC(=O)Cc1csc(NC(=O)CN(C)S(=O)(=O)c2cccc3cccnc23)n1,x,4969,7,4.4,x,x,-14
O=C(NCCCNC(=O)c1cnccn1)c1cccc(F)c1,-4,4062,2,3.3,-10,-1,-11
CCn1c(=S)sc2c(=O)n(CC(=O)Nc3ccc(C(C)=O)cc3)c(C)nc21,8,4673,0,0.2,-4,8,-16
Cc1ccc(OCc2cc(C(=O)NCc3ccc(OC(F)(F)F)cc3)no2)cn1,-1,5761,9,-6.9,7,13,-29
CCCN1CNc2c(c(=O)[nH]c(=S)n2CCc2ccc(OC)c(OC)c2)C1,11,3194,-1,0.8,5,-1,-8
Cn1nc(C(=O)NCCCN2CCCCC2)c2c1-c1ccccc1S(=O)(=O)C2,-6,5889,9,4.3,15,1,-16
CSc1nsc(N/N=C/c2ccccc2)c1C#N,12,4385,x,x,x,x,-34
CCCCn1c(O)c(C(C)=NCCN2CCCCC2)c(=O)[nH]c1=O,x,15204,3,-0.1,3,4,-10
CSc1nc2ccc3nc(NC(=O)C4COc5ccccc5O4)sc3c2s1 (stereo not given),-2,6191,8,-0.6,9,11,-13
CCc1ccc(C(=O)Cn2cnc3cc([N+](=O)[O-])ccc3c2=O)cc1,-1,4162,-4,-0.9,-7,1,-34
Cc1ccnc(SCC(=O)NC2CCCCCC2)n1,-20,5435,5,3.5,8,-5,-2
Nc1ccc(SCc2nc3cccc4c3n2CCC4)cc1,0,4058,x,x,x,x,-16
Cc1ccc(-c2cc(N)on2)cc1,5,2153,7,4.1,5,8,-33
CC(NC(=O)COC(=O)c1ccc(Br)o1)c1ccccc1 (stereo not given),x,u,8,3.4,-3,4,10
COc1ccc(NC2CCCN(C(=O)c3ccc(OC)o3)C2)cc1 (stereo not given),-8,6029,13,2.8,10,7,-39
OC(COCc1ccco1)CN1CCN(C(c2ccccc2)c2ccccc2)CC1 (stereo not given),-6,2154,-3,-1.5,x,x,-22
COc1ccccc1N1CCN(C2CCCN(C(=O)c3cccc(-c4ccco4)c3)C2)CC1 (stereo not given),-11,4039,12,3.5,9,4,3
O=C(CN1CCOCC1)Nc1ccc(Br)cn1,-6,4304,4,0.7,4,2,-9
O=C(Nc1cc(Cl)ccc1Cl)c1noc2c1CCCC2,-4,5066,6,1.6,1,4,-11
OCCC1CN(Cc2ccon2)CCN1CCc1ccccc1 (stereo not given),-9,3443,3,7.4,9,5,-18
Cn1nc(C(F)(F)F)c2cc(C(=O)Nc3ccc(Cl)cc3)sc21,-5,2678,-2,-2.7,x,x,-17
CC(C)[C@H](NC(=O)OC(C)(C)C)C(=O)NN=Cc1cccc2nccnc12,x,x,18,3.9,7,3,x
O=C(CCCN1C(=O)/C(=C/c2cccs2)SC1=S)NNC(=O)c1ccc(F)cc1,0,2428,2,5.6,11,4,15
CC=CC(=O)Nc1cccc(C2=NOC3(C2)CC(C(N)=O)N(C(=O)C(C)=CC)C3)c1 (stereo not given),x,x,0,4.9,6,5,x
Cc1cccc(C(=O)N2CCc3cc(-c4csc(NC(=O)CN5CCCC5)n4)ccc32)c1,0,6409,-4,0.5,-17,-1,8
Cc1ccc(CNC(=O)c2ccc(CNc3c(N4CCCC4)c(=O)c3=O)cc2)cc1,0,5230,5,7.0,-7,10,-29
Cc1cccc(N2C(=O)/C(=C\c3ccc(C(=O)O)cc3)c3ccccc3C2=O)c1,27,4302,1,-0.1,0,-2,-16
CC(C)(C(=O)c1ccccc1)/[N+]([O-])=C/c1ccc(Br)cc1,x,22272*,2,1.6,5,5,-11
CC(C)(CSc1nncn1N=Cc1ccco1)NS(=O)(=O)c1ccc(Cl)cc1,x,x,-3,3.0,8,13,x
O=C1NC[C@@H](Cc2ccc(O)cc2)N(CC2CCCCC2)C1=O,-4,3491,x,x,x,x,-13
CCOC(=O)C1C2COc3cc(OC)ccc3C2N2C(=O)N(c3cccc(F)c3)C(=O)[C@@]12C (stereo not given in full),x,x,-4&-5&-4,-2.3&5.8&4.4,3&3&-7,10&4&6,x
CCCN(CC(=O)Nc1ccccc1OC)C(=O)Cc1ccccc1F,-7,4926,8,1.7,-4,3,-8
COc1ccc(CNCCC2(C(C)C)CCOC(C)(C)C2)cc1 (stereo not given),3,4400,1,2.3,4,0,4
Cc1nc(-c2ccccc2)sc1-c1ccn[nH]1,0,3624,2,12,x,x,-97
CC1CC(Nc2ccccc2)c2ccccc2N1C(=O)c1ccccc1F (stereo not given),0,3164,13,9.3,-8,1,-26
CC(Cc1ccccc1)=NNC(=O)c1cc(C(C)(C)C)[nH]n1,x,x,3,8.2,15,12,x
Cc1ccc(/C=C2/C(=O)N(c3ccccc3)C(=S)N2C)o1,-1,2771,12,4.7,9,1,-9
CCOc1ccc(/C=N/NC(=O)CN2CCCCCCC2)cc1,5,4498,x,x,x,x,-13
CC(/C=C1\N=C(SCc2ccccc2)SC1=O)=C\c1ccccc1,-15,1936,17,-2.9,7,3,-9
Cc1ccccc1CS(=O)(=O)CCC(=O)NCCCN1CCOCC1,-20,2444,x,x,x,x,-19
Cc1cccc(-c2noc(-c3ccc4c(c3)OCO4)n2)c1,8,3968,-4,1.6,13,-3,-27
COCCN(Cc1nnc(-c2cccs2)o1)C(=O)CN1C(=O)NC2(CCCCC2)C1=O,x,3060,2,0.2,9,16,-18
COc1cccc(C(=O)NCC(=O)N2CCN(c3ccc(C(F)(F)F)cn3)CC2)c1,x,6640,8,-1.7,7,-1,-29
Cc1ccc2ncnc(Nc3cccc([N+](=O)[O-])c3)c2c1,3,3644,8,8.1,-2,5,-8
COCCn1c(SCC(=O)Nc2ccc(C(C)=O)cc2)nnc1-c1ccco1,-10,3200,4,6.6,14,9,14
CC(=O)N1CCN(c2ccccc2NC(=O)COc2cc(C)cc(C)c2)CC1,-9,5475,1,1.8,10,4,26
CN1CCN(/C=C2\SC(=S)NC2=O)CC1,0,3168,x,x,x,x,-8
CC(=O)Nc1ccc(OC(=O)N(C)c2ccccc2)cc1,8,3226,9,10.0,11,6,-8
COC1=C(Nc2ccccc2)C(=O)C(OC)=C(Nc2ccccc2)C1=O,x,3624,-1,-0.2,12,13,-10
Cc1cc(C(=O)NN=Cc2ccc(O)c([N+](=O)[O-])c2)n[nH]1,x,x,7,5.0,23,35,x
COc1ccc(NS(=O)(=O)c2cn(C)c(=O)n(C)c2=O)c(OC)c1,0,3319,0,-0.9,5,5,-5
COc1ccc(-c2csc(N(Cc3ccccc3)C(=O)COc3ccc(Cl)cc3)n2)cc1,-6,10521,-14,9.4,2,7,-26
N#C/C(=C\c1ccco1)C(=O)NCc1ccccc1,-6,2180,7,2.0,9,2,-53
COc1ccc(C=NOCc2nc3c4c(ncn3n2)Oc2ccc3ccccc3c2C4c2ccccc2)cc1 (stereo not given),x,x,8,5.6,7,4,x
Cc1cccc(NC(=O)Nc2cccc(C#N)c2)n1,-8,5920,6,6.1,x,x,-35
CCCC(c1nnnn1C(C)(C)C)N1CCN(C(=O)c2ccco2)CC1 (stereo not given),8,4554,10,1.4,4,4,-5
Cc1ccccc1NC(=O)C(c1ccccc1)C1CCCC1 (stereo not given),3,2485,-11,1.2,-1,-1,-20
COC1=NC(=C(c2ccccc2)c2ccccc2)OC1=O,x,3706,5,2.2,2,5,-12
CC(C)CC(NC(=O)C1CCCN1C(=O)OC(C)(C)C)C(=O)NCC(N)=O (stereo not given),-1,2465,1,0.7,x,x,6

# Only Bead autofluor and RN4220 kill, for 5 of the compounds above:
mol	Bead autofluor	RN4220 kill
Fc1cccc2sc(N3CCCC3)nc12	5033	4.4
CC(NC(=O)COC(=O)c1ccc(Br)o1)c1ccccc1 (stereo not given)	u	3.4
Cc1nc(-c2ccccc2)sc1-c1ccn[nH]1	3624	12
COc1ccc(-c2csc(N(Cc3ccccc3)C(=O)COc3ccc(Cl)cc3)n2)cc1	10521	9.4
OCCC1CN(Cc2ccon2)CCN1CCc1ccccc1 (stereo not given)	3443	7.4

# The list continues:
SMILES,BJeLR viability,Bead autofluor,ugtP null kill,RN4220 kill,Mtb hypoxia rep,Mtb hypoxia rep growth,PrP UTR inh
O=C(NCC(=O)N1CCN(c2ccc([N+](=O)[O-])cc2)CC1)c1ccco1,x,3492,1,-1.3,-2,2,-9
CSCCC(NC(=O)c1ccc(Cl)cc1Cl)C(=O)N1CCN(C(=O)c2ccccc2)CC1 (stereo not given),x,3785,1,4.1,16,14,-7
COc1cc(C(=O)OCCCN(C)C)cc(OC)c1OC,6,5884,3,2.8,10,1,2
COc1ccc(OC)c(C=NN(CCC#N)C2=NS(=O)(=O)c3ccccc32)c1,x,x,-1,3.8,-9,-7,x
Cc1csc(NS(=O)(=O)c2ccc(Cl)cc2)n1,-8,4051,10,10,7,-1,-7
CCOc1ccc(CN(C)C(=O)CNC(=O)c2ccccc2)cc1,8,3560,7,-1.4,-2,-5,8
Oc1ccc(N=Cc2cc(Br)c(N3CCOCC3)o2)cc1,1,2232,-7,2.2,2,8,-23
Cc1cc(CN(C)C(=O)c2cc(COc3ccc4ncccc4c3)on2)on1,18,4828,6,5.9,15,9,-9
Cc1ccc(NC(=O)CN(C)C(=O)COC(=O)C(C)(C)Oc2ccc(Cl)cc2)cc1,-9,6395,-2,-1.5,-2,-6,-12
Cc1cc(NC(=O)c2ccc([N+](=O)[O-])cc2)no1,-6,3135,7,5.4,6,1,-26
CCN(CC)c1ccc(C=NNC(=O)c2cccc3cc[nH]c23)cc1,x,x,-7,2.0,-9,-1,x
CCn1c(SCC(=O)NN=C/C=C\c2ccccc2[N+](=O)[O-])nnc1-c1ccccc1,x,x,14,6.6,-2,-2,x
C=CCn1c(SCC(=O)Nc2c(C)n(C)n(-c3ccccc3)c2=O)nc2sc(C)c(-c3ccccc3)c2c1=O,-5,2506,5,-5.7,x,x,-26
CCOC(=O)N1CCC(NC(=O)c2ccc3c(c2)sc2nc(-c4ccccc4)cn23)CC1,x,3261,19,26,-5,7,-44
CC1CC(C)CN(CCCNC(=O)c2ccc3c(c2)NC(=O)C(N2CCCCC2)S3)C1 (stereo not given),0,3492,-8,-17,16,17,-25

# 2 records picked at random from the list so far, as already listed:
SMILES,BJeLR viability,Bead autofluor,ugtP null kill,RN4220 kill,Mtb hypoxia rep,Mtb hypoxia rep growth,PrP UTR inh
Cc1ccc(NC(=O)CN(C)C(=O)COC(=O)C(C)(C)Oc2ccc(Cl)cc2)cc1,-9,6395,-2,-1.5,-2,-6,-12
CSCCC(NC(=O)c1ccc(Cl)cc1Cl)C(=O)N1CCN(C(=O)c2ccccc2)CC1 (stereo not given),x,3785,1,4.1,16,14,-7

# The results go on:
SMILES,BJeLR viability,Bead autofluor,ugtP null kill,RN4220 kill,Mtb hypoxia rep,Mtb hypoxia rep growth,PrP UTR inh
O=c1[nH]c2sc3c(c2c2nncn12)CCCC3,-1,7943,12,12,5,-2,-9
COCc1cc(C)nc2sc3c(=O)oc(C)nc3c12,0,2924,2,0.9,x,x,-3
COC(=O)CN(Cc1ccco1)S(=O)(=O)c1ccccc1,5,10073,2,-0.9,16,1,-12
O=S(=O)(c1cc(Cl)ccc1Cl)n1cccn1,15,4130,3,4.5,4,1,-7
CCOc1ccc(C2c3c(oc4ccccc4c3=O)C(=O)N2CCCN2CCOCC2)cc1OCC (stereo not given),1,5744,7,-0.7,x,x,-27
CC(=O)Nc1ccc(NC(=O)CCCc2c[nH]c3ccccc23)cc1,1,4717,-9,4.4,5,-4,-19
COc1cc2oc(=O)ccc2cc1[C@@H](O)[C@@H]1OC(C)(C)OC1(C)C,x,3807,-3,-12,12,4,-10
COc1ccc(C(=O)OCn2nnc3ccccc3c2=O)cc1OC,-7,3063,-4,0.0,x,x,11
O=C(CCCc1nc2ccccc2s1)NCc1cccnc1,8,4292,2,-0.3,7,9,-14
CC1CCCCC12NC(=O)N(CC(=O)Nc1ccccc1F)C2=O (stereo not given),x,u,11,6.5,4,-2,-2
COC(=O)C1CCN(c2cc(=O)n(-c3ccc(OC)cc3)c(=O)[nH]2)CC1,-7,5594,5,13,-4,10,68*
CCC1(c2ccc(OC)cc2)NC(=O)N(CC(=O)N2CCc3ccccc32)C1=O (stereo not given),x,u,-2,-0.9,x,x,-16
CC1=C(C(=O)OCc2ccccc2)C(c2ccc3ccccc3c2)NC(=O)N1CCCC(=O)O (stereo not given),-9,4506,-7,11,2,0,-40
CC(=NOC(=O)c1ccc(C)cc1)c1c(C)nc2cc(C)ccn12,x,x,2,4.2,11,-1,x

# Screening data: PubChem, several laboratories
